Compound activity: PubChem, National Center for Advancing Translational Sciences (NCATS)
SARS PLpro yeast: blocks SARS-CoV papain-like protease in a yeast assay. S. cerevisiae expressing SARS-CoV PLpro, growth rescue; control for the full effect not named in the record. Potency, µM (titrated, usually from 32.9 µM), for inactives: at the top dose activity, positive = growth rescue. 330,000 tested, 0.19% active. AID 485353; note: 0% is about no effect; nearly all actives have a fitted effect of over 55% in size; growth read by luminescence after 48 h
Marburg entry inh: blocks Marburg virus binding to or entry into cells; Marburg virus pseudotyped entry inhibition, cell reporter; control for the full effect not named in the record; about a third of the inactives were read at about 46 µM; Potency, µM (top dose mostly 37.8 µM), for inactives: at the highest dose activity change, negative = inhibition, hits mostly inhibitors; 300,000 tested, 1.8% active; active = well fitted inhibition curve with a large enough effect; inconclusive = small, poorly fitted or top-dose-only effect, or effect the other way; inactive = flat fitted curve, though single readings scatter; tested in HEK293 cells; about a fifth of its hits are not listed in these tables; note: % is set by controls: 0 for no effect and ±100 for the full control effect; luciferase read-out
NS1 function inh: influenza NS1 inhibition; S. cerevisiae slowed by influenza A NS1, growth recovery by OD600; 270,000 tested, 0.4% active; Potency, µM (highest dose often 46.1 µM), without a hit: top-dose activity, positive = more growth; note: actives are rising curves; nearly all actives have a fitted effect of over 50% in size
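A cell-based growth assay was used: compounds that relieve NS1-induced slow growth of budding yeast raise OD600. Assay medium was yeast nitrogen base with ammonium sulphate and -URA supplement, pH 6.0, with 2% galactose.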
RE007 growth inh: less growth of the S. pombe RE007 Vpr strain. 360,000 tested, 0.21% active. Potency, µM (titrated, usually from 92.2 µM), for inactives: at the top dose activity change, negative = less growth. S. pombe RE007 Vpr strain, BacTiter-Glo ATP luminescence, 24 h; control for the full effect not named in the record; active = well fitted falling curve with a large enough effect; inconclusive = small, poorly fitted or top-dose-only effect; inactive = no such curve, though single readings can be large or run the other way;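 note: % is set by controls: 0 for no effect and ±100 for the full control effect; nearly all actives have a fitted effect of over 50% in size; the assay follows cell death caused by Vpr and the record does not say whether a fall means rescue or toxicity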
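Fission yeast RE007 carrying one integrated HIV-1 vpr copy, seeded at OD 0.01 in PMG+AL medium with 23 nL pinned compound. Grown 24 h at 30 degrees; viability read by BacTiter-Glo luminescence after 5 min.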
Cruzain noTriton: inhibitors of Trypanosoma cruzi cruzain without detergent. purified cruzain, Z-FR-AMC fluorescence, no detergent. Potency, µM, without a hit: max response, negative = inhibition, actives largely listed as inhibitors. AID 1476. 200,000 tested, 2.3% active; active = well fitted curve in the direction sought with a large enough effect; inconclusive = small, poorly fitted or top-dose-only effect, or another doubt; inactive = no such curve, though single readings can be large; an effect the other way counts as inactive or inconclusive;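 note: plate controls were enzyme without inhibitor for no effect and buffer without enzyme for full effect; nearly all actives have a fitted effect of over 40% in size; top concentration of the series not given in the record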
Target sequence (P25779 123-467 limits assumed): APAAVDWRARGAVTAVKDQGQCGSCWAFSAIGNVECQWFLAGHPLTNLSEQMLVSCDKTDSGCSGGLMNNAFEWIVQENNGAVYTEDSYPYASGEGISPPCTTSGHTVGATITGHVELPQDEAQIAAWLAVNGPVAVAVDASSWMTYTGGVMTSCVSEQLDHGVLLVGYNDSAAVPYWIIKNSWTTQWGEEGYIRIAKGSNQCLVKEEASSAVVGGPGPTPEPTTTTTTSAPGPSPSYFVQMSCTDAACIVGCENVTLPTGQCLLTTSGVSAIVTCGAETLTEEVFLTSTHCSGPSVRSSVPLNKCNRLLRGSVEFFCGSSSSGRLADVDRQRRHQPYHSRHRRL
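Detergent-free condition (0.00005% Triton X-100) in acetate buffer pH 5.5 with DTT. 1.5 nM enzyme and compound were pre-mixed 15 min, then 2 uM Z-FR-AMC substrate added; reaction progress from fluorescence change between first and third reads (60 s).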
Cruzain Triton: cruzain (T. cruzi) inhibition with detergent; Potency, µM, without a hit: max response, negative = inhibition, actives largely listed as inhibitors; 200,000 tested, 0.43% active; purified cruzain, Z-FR-AMC fluorescence, 0.01% Triton; P25779; active = well fitted curve in the direction sought with a large enough effect; inconclusive = small, poorly fitted or top-dose-only effect, or another doubt; inactive = no such curve, though single readings can be large; an effect the other way counts as inactive or inconclusive;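 note: plate controls were neutral wells for no effect and buffer without enzyme for full effect; nearly all actives have a fitted effect of over 40% in size; top concentration of the series not given in the record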
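Detergent-containing run (0.01% Triton X-100) in acetate buffer pH 5.5 with 5 mM DTT: enzyme at 1.5 nM final, 15 min compound preincubation at room temperature, then 2 uM Z-FR-AMC substrate. Activity taken as 60 s fluorescence increase at 360/450 nm.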
Lassa entry inh: blocks Lassa virus binding to or entry into cells | Lassa virus pseudotype entry inhibition, cell reporter; control for the full effect not named in the record | Potency, µM (top dose mostly 37.9 µM), without a hit: at the highest dose activity change, negative = inhibition, actives largely listed as inhibitors | 300,000 tested, 1.2% active | AID 540256; active means well fitted inhibition curve with a large enough effect; inconclusive means small, poorly fitted or top-dose-only effect, or effect the other way; inactive means flat fitted curve, though single readings scatter; tested in HEK293 cells; note: % is set by controls: 0 for no effect and ±100 for the full control effect; nearly all actives have a fitted effect of over 50% in size; luciferase read-out
2A StopGo: FMDV 2A StopGo reporter, luciferase signal; 410,000 tested, 1.2% active; human cells with a luciferase reporter of 2A StopGo recoding; control for the full effect not named in the record; Potency, µM (doses to about 57.9 µM), for the others: at the top dose signal change, negative = less light; active = well fitted falling curve with a large enough effect; inconclusive = small, poorly fitted or top-dose-only effect; inactive = no such curve, though single readings can be large or run the other way; tested in HEK293T cells; note: % is set by controls: 0 for no effect and ±100 for the full control effect; nearly all actives have a fitted effect of over 45% in size; luciferase light after 4 h
* hit, by the source's call; ? = inconclusive; / = no result given; [ ] = dose if it differs, or a comment. Unless noted, calls come from the whole dose curve; as a rule, active means well fitted rising curve with a large enough effect; inconclusive means small, poorly fitted or top-dose-only effect; inactive means no such curve, though single readings can be large or run the other way. Potency is the fitted concentration of half-maximal effect. This is a random part of the collection; about 4.7% have a hit in one of these screens.

SMILES	SARS PLpro yeast	Marburg entry inh	NS1 function inh	RE007 growth inh	Cruzain noTriton	Cruzain Triton	Lassa entry inh	2A StopGo
O=C(COC(=O)/C=C/c1ccc(C(F)(F)F)cc1)Nc1ccc2[nH]c(=O)[nH]c2c1	-1%	8%	/	5%	/	/	7%	-8%
CCOC(=O)C1=C(C)OC(N)=C(C(=O)OC)C12C(=O)Nc1ccc(Br)cc12 (stereo unspecified)	-4%	2%	3%	3%	9%	4.4%	9%	-29%
CC(C)(C)n1nc2c(c1NC(=O)COc1ccccc1F)CS(=O)(=O)C2	-3%	-16%[46.1 µM]	/	-4%	/	/	/	-9%
CCOC(=O)N1CCC(NC(=O)CCN2C(=O)COc3ccccc32)CC1	-1%	4%	-17%	2%	-7%	0.0%	13%	/
CCOc1cc(/C=N/NC(=O)c2ccccn2)ccc1OC(=O)c1ccc(F)cc1	1%	-8%	15%	-6%	/	/	0%	-3%
CNC(=O)c1nc(C)n(-c2cc(Cl)cc(Cl)c2)n1	1%	-5%	-4%	16%	0%	9.6%	11%	0%
COC(=O)C(CO)NC(=O)C(C)NC(=O)CNC(=O)OCc1ccccc1 (stereo unspecified)	-3%	-4%[46.1 µM]	/	-9%	/	/	1%	-9%
CN(CCOC(=O)/C=C/c1ccco1)Cc1ccccc1	0%	/	3%	-4%	/	/	/	12%
CCc1nnc(NC(=O)c2cc(-c3ccncc3)nc3ccccc23)s1	1%	/	-5%	7%	/	/	/	-7%
Cc1ccc(NC(=O)CSC2=NN3CCCC(=O)N=C3S2)c(C)c1	0%	/	-4%	4%	/	/	/	-29%
CC1CCCN(C(=O)c2ccc3c(c2NCCO)C(=O)c2ccccc2C3=O)C1 (stereo unspecified)	-4%	?	-5%	-18%	?	-7.8%	-4%	-19%
Cc1ccc2c(c1)C(c1ccc(F)cc1)N(C(=O)COc1ccc(Cl)cc1Cl)CC(=O)N2 (stereo unspecified)	/	?	/	/	?	-6.4%	?	?
O=C(O)C1CCN(C(=O)NC2CCCCC2)CC1	6%	-1%	5%	5%	4%	3.5%	2%	10%
CC(SCc1ccccc1)C(=O)NC1CCCC1 (stereo unspecified)	-1%	12%	0%	-8%	2%	0.7%	?	-10%
CC(C)(C)n1nnnc1C(c1cccnc1)N1CCOCC1 (stereo unspecified)	-1%	22%[46.1 µM]	2%	-11%	/	/	8%[46.1 µM]	-16%
COc1ccccc1CCNS(=O)(=O)c1cc2c3c(c1)CCN3C(=O)CC2	-4%	-10%	/	-14%	/	/	-14%	36%[activator]
OC(COc1ccccc1Br)CN1CCNCC1 (stereo unspecified)	1%	-11%[46.1 µM]	5%	4%	/	/	8%[46.1 µM]	0%
CCOc1cc2c(cc1OC)C(NC(=O)C(F)(F)F)CC2=O (stereo unspecified)	5%	11%	9%	6%	5%	-6.4%	11%	-3%
CCc1ccc(S(=O)(=O)c2nnn3c2nc(N2CCC(C(N)=O)CC2)c2cc(Cl)ccc23)cc1	/	-6%[46.1 µM]	/	/	?	-14%	/	11%
O=C(O)CCN1C(=O)c2ccc(NC(=O)CSc3ccccc3)cc2C1=O	-5%	23%	-10%	-3%	1%	2.4%	7%	-13%
CCOC(=O)c1sc(NC(=O)CN2CC(C)OC(C)C2)nc1C (stereo unspecified)	-1%	-5%[46.1 µM]	3%	-8%	/	/	0%[46.1 µM]	-11%
CCOC(=O)c1oc2ccccc2c1COC(=O)CNC(=O)c1ccco1	-5%	3%	/	11%	/	/	10%	-8%
O=C(c1ccco1)n1nc(-c2ccc(Cl)cc2)nc1NCc1ccco1	/	?	4%	1%[3.69 µM]	-6%	-0.9%	3%	6%
COc1ccc(C(C)=O)cc1COc1ncnc2ccccc12	2%	1%[46.1 µM]	/	-11%	/	/	?	-8%
C(=Nc1ccc(Nc2ccccc2)cc1)c1ccc2ccccc2c1	-8%	?	5%	-4%	-22%	-3.2%	?	13%

Three entries from above, as labelled records:
O=C(O)CCN1C(=O)c2ccc(NC(=O)CSc3ccccc3)cc2C1=O
- SARS PLpro yeast = -5%
- Marburg entry inh = 23%
- NS1 function inh = -10%
- RE007 growth inh = -3%
- Cruzain noTriton = 1%
- Cruzain Triton = 2.4%
- Lassa entry inh = 7%
- 2A StopGo = -13%
CCOC(=O)c1sc(NC(=O)CN2CC(C)OC(C)C2)nc1C (stereo unspecified)
- SARS PLpro yeast = -1%
- Marburg entry inh = -5%[46.1 µM]
- NS1 function inh = 3%
- RE007 growth inh = -8%
- Cruzain noTriton = /
- Cruzain Triton = /
- Lassa entry inh = 0%[46.1 µM]
- 2A StopGo = -11%
CCOC(=O)c1oc2ccccc2c1COC(=O)CNC(=O)c1ccco1
- SARS PLpro yeast = -5%
- Marburg entry inh = 3%
- NS1 function inh = /
- RE007 growth inh = 11%
- Cruzain noTriton = /
- Cruzain Triton = /
- Lassa entry inh = 10%
- 2A StopGo = -8%

7 records picked at random from the list so far:
SMILES	SARS PLpro yeast	Marburg entry inh	NS1 function inh	RE007 growth inh	Cruzain noTriton	Cruzain Triton	Lassa entry inh	2A StopGo
CCOC(=O)C1=C(C)OC(N)=C(C(=O)OC)C12C(=O)Nc1ccc(Br)cc12 (stereo unspecified)	-4%	2%	3%	3%	9%	4.4%	9%	-29%
O=C(c1ccco1)n1nc(-c2ccc(Cl)cc2)nc1NCc1ccco1	/	?	4%	1%[3.69 µM]	-6%	-0.9%	3%	6%
OC(COc1ccccc1Br)CN1CCNCC1 (stereo unspecified)	1%	-11%[46.1 µM]	5%	4%	/	/	8%[46.1 µM]	0%
CCOC(=O)c1sc(NC(=O)CN2CC(C)OC(C)C2)nc1C (stereo unspecified)	-1%	-5%[46.1 µM]	3%	-8%	/	/	0%[46.1 µM]	-11%
CCOC(=O)c1oc2ccccc2c1COC(=O)CNC(=O)c1ccco1	-5%	3%	/	11%	/	/	10%	-8%
CCc1nnc(NC(=O)c2cc(-c3ccncc3)nc3ccccc23)s1	1%	/	-5%	7%	/	/	/	-7%
CC(C)(C)n1nnnc1C(c1cccnc1)N1CCOCC1 (stereo unspecified)	-1%	22%[46.1 µM]	2%	-11%	/	/	8%[46.1 µM]	-16%

Other compounds follow:
SMILES	SARS PLpro yeast	Marburg entry inh	NS1 function inh	RE007 growth inh	Cruzain noTriton	Cruzain Triton	Lassa entry inh	2A StopGo
CSc1nnc(C2CCN(CC(=O)Nc3ccccc3N3CCOCC3)CC2)n1C	0%	?	0%	-9%	/	/	/	-3%
O=C(COc1ccc(F)cc1)Nc1nc(-c2ccccn2)cs1	3%	-6%	/	?	/	/	5%	-16%
N#Cc1ccccc1S(=O)(=O)Nc1ccc2c(c1)OCCO2	-1%	-1%	2%	-8%	/	/	14%	-14%
COc1ccc(S(=O)(=O)NCC(=O)N(CC(=O)NCc2ccco2)Cc2ccc(F)cc2)cc1	0%	-4%[46.1 µM]	-1%	14%	/	/	/	16%
CCOC(=O)CCc1nc2ccccc2[nH]c1=O	-5%	?	-3%	35%	-6%	-12%	4%	-4%
CNc1nc(Nc2ccccc2)nc(OCC(F)(F)F)n1	-7%	9%[46.1 µM]	-5%	5%	/	/	-6%	-13%
O=C(Nc1ccc(Cn2cccn2)cc1)c1ccc(COc2cccc(Br)c2)cc1	1%	0.56µM*	-2%	1%	-13%	-3.7%	5.6µM*	-21%
C=CCOc1ccc(C(c2c(O)nc(SC)[nH]c2=O)c2c(O)nc(SC)[nH]c2=O)cc1	/	-9%[46.1 µM]	/	0%	/	/	0%[46.1 µM]	-17%
O=C(Oc1ccc(Cl)c2cccnc12)N1CCOCC1	1%	1%	9%	10%	-3%	-1.4%	-1%	6%
N=c1oc2ccc(Br)cc2cc1C(=O)NCc1ccc(F)cc1	-3%	/	-2%	5%	/	/	/	-9%
CCC(C)Nc1nc(CN2CCOCC2)nc2sc3c(c12)CCC3 (stereo unspecified)	9%	?	12%	13%	-7%	-2.0%	-5%	?
COCCCNC(=O)Nc1cc(C(=O)NCc2ccc(OC)cc2)ccc1N1CCCC1	/	/	/	/	-3%	-4.0%	9%[46.1 µM]	45%[activator]
CCN(CC(=O)Nc1ccc(Cl)c(C(F)(F)F)c1)CC(=O)NC1CCS(=O)(=O)C1 (stereo unspecified)	0%	15%[46.1 µM]	/	23%	/	/	?	-20%
CN(CC1CCCO1)S(=O)(=O)c1ccc(C(=O)Nc2nc3cc4c(cc3s2)OCO4)cc1 (stereo unspecified)	-2%	/	-10%	-5%	/	/	/	0%
CCOc1cc(N2CCOCC2)c(OCC)cc1NC(=O)c1cc(C)nc2ccccc12	-2%	?	/	12%	/	/	13%	?
CC(C)(C)C(=O)NC(=S)Nc1cccc(C(=O)O)c1	0%	?	0%	14%	/	/	3%[46.1 µM]	-3%
CC(C)(C)CC(=O)NC(=S)Nc1ccccc1[N+](=O)[O-]	0%	/	1%	-14%	/	/	/	-5%
COC(=O)Cc1c(C)c2ccc(OCC(=O)N3CCCC(C)C3)c(C)c2oc1=O (stereo unspecified)	-4%	/	-9%	-2%	/	/	/	-16%
O=C(NNC(=S)NC(=O)c1ccccc1)c1ccc(O)cc1	-3%	-6%[46.1 µM]	-13%	7%	/	/	14%[46.1 µM]	-14%
CN(CC(=O)Nc1ccccc1C(=O)N1CCCC1)S(=O)(=O)c1ccc(Br)cc1	3%	?	-2%	2%	4%	4.6%	?	?
CC(On1nnc2ccccc21)C(=O)N1CCN(Cc2ccccc2)CC1 (stereo unspecified)	-2%	0%[46.1 µM]	/	0%	/	/	?	20%
CCN(C(=S)Nc1cccnc1)c1cccc2ccccc12	-1%	5%	4%	-21%	/	/	-2%	-6%
O=C(CSc1nnc(-c2ccncc2)o1)N1CCCC1	-5%	0%[46.1 µM]	/	5%	/	/	?	11%
